Screens as filed in PubChem BioAssay.
ClpP mod: qHTS Assay for Activators of ClpP. Potency, µM (titrated, usually from 57.5 µM), without a hit: at the top dose activity change, negative = active. purified B. subtilis ClpP, FRET peptide cleavage, 20 min. ATP-dependent Clp protease proteolytic subunit (Bacillus subtilis (strain 168)), P80244. 1.9% of 340,000 active. AID 651965, 2013; active = well fitted falling curve with a large enough effect; inconclusive = small, poorly fitted or top-dose-only effect; inactive = no such curve, though single readings can be large or run the other way; note: potency is the fitted concentration of half-maximal effect; the source files actives as falling curves though it sought activators and does not explain the sign; nearly all actives have a fitted effect of over 65% in size; many hits overshoot -100%
Target sequence (P80244 whole entry, looked up): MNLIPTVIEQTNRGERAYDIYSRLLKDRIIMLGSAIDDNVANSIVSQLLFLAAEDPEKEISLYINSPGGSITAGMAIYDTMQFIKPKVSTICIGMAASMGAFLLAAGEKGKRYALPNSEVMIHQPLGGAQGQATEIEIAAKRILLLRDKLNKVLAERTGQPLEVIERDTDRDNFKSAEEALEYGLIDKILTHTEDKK
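Buffer: 100 mM Tris/HCl pH8, 100 mM KCl, 0.05% low protease BSA, 2.5% glycerol, 0.01% Tween-20. ClpP 10 microg/mL final; 20 min RT; delta FRET normalized to ADEP and DMSO controls.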
Menin MLL FP FL: qHTS Assay for Inhibitors Targeting the Menin-MLL Interaction in MLL Related Leukemias: Competition With Fluorescein Labeled MLL-derived Peptide | AID 1766, 2009 | FP activity change, % at 61.4 µM | 290,000 tested, under 10 active | Fluorescence polarization, fluorescein-MLL peptide displacement from menin; inconclusive = falling polarisation curve, or a change in total fluorescence; inactive = total fluorescence flat and polarisation flat or rising; no compound was filed as active; the % refers to the polarisation; negative = inhibition;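 note: % of control where 0% means no effect; inhibitors lower the polarisation; unlabelled MLL peptide was the positive control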
gsp ag: qHTS for Agonist of gsp, the Etiologic Mutation Responsible for Fibrous Dysplasia/McCune-Albright Syndrome: qHTS | Potency, µM (highest dose often 76.9 µM), for inactives: at the highest dose activation (cAMP increase), most hits filed as activators | gsp mutant cells, cAMP HTRF, 30 min; control for the full effect not named in the record | AID 624287, 2012 | 0.13% of 340,000 active; active = well fitted activation curve with a large enough effect; inconclusive = small, poorly fitted or top-dose-only effect, or another doubt; inactive = no such curve, though single readings can be large or run the other way; cell line not stated here;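 note: phosphodiesterase inhibitor Ro 20-1724 added with compounds to block cAMP breakdown; potency is the fitted concentration of half-maximal effect; nearly all actives have a fitted effect of over 60% in size; about a fifth of the inactives were tested at one dose only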
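Cells stably selected in G418 were plated at 2000/well, grown 16-24 hr, then given compounds in DMSO with the PDE inhibitor […] (300 uM solution added) for 30 min at 37C; cAMP was read by HTRF.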
gsp antagonist: qHTS for Antagonists of gsp, the Etiologic Mutation Responsible for Fibrous Dysplasia/McCune-Albright Syndrome: qHTS; 0.4% of 340,000 active; Potency, µM (titrated, usually from 76.9 µM), inactives show at the top dose activity change, negative = inhibition, most hits filed as inhibitors; gsp-mutant cells, cAMP HTRF, 30 min; control for the full effect not named in the record; active = falling curve of any shape with a large fitted effect; inconclusive = falling curve, mostly with a smaller effect; inactive = flat or rising curve; cell line not stated here;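 note: intracellular cAMP measured with PDE inhibitor Ro 20-1724 present during compound exposure; potency is the fitted concentration of half-maximal effect; % is set by controls: 0 for no effect and ±100 for the full control effect; nearly all actives have a fitted effect of over 65% in size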
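Measurement of cellular cAMP by homogeneous time-resolved fluorescence following a 30 min compound exposure at 37C. The PDE inhibitor […] was present throughout; the assay buffer was DPBS with 0.05% BSA and 0.005% Tween 20.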
TRPML1 inh: qHTS for Inhibitors of the Human Mucolipin Transient Receptor Potential 1 (TRPML1) | Mucolipin-1 (Homo sapiens), Q9GZU1 | TRPML1-inducible cells, Ca2+ dye fluorescence, FDSS; hits give low values; inhibition of EC80 agonist-evoked calcium signal | activity change, negative = inhibition, % (no concentration beside the values) | 0.02% of 390,000 active | AID 624415, 2012; in the data active means activity change below about -50%; inconclusive means about -30% to -50%; inactive means above about -30%;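 note: stimulus is agonist 54-4 at its EC80 concentration; % is set by controls: 0 for no effect and ±100 for the full control effect; compound concentration not given in the record; the text of the record puts the active cut at -80%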
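TRPML1-DL cells, Tet-induced overnight (~16 h, 37 °C) at 1,500 cells/well, were loaded with Ca8 no-wash dye plus quencher for 45-90 min at room temperature. Compounds were pinned during FDSS kinetic reading; agonist 54-4 at EC80 (4 uM final) then added.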
TRPV1 potentiator: HTS Assay for Compounds that Act as Potentiators of the Vanilloid Receptor 1 | TRPV1-expressing cells, Fluo-8 calcium influx, capsaicin EC20 potentiation; host cell line not named in the record; control for the full effect not named in the record | potentiation, % at 8.33 µM | 0.02% of 320,000 active | AID 540277, 2011; active means potentiation above 80%; inconclusive means 30% to 80%; inactive means below 30%; note: 0% is about no effect
Target sequence (Q8NER1 whole entry, looked up): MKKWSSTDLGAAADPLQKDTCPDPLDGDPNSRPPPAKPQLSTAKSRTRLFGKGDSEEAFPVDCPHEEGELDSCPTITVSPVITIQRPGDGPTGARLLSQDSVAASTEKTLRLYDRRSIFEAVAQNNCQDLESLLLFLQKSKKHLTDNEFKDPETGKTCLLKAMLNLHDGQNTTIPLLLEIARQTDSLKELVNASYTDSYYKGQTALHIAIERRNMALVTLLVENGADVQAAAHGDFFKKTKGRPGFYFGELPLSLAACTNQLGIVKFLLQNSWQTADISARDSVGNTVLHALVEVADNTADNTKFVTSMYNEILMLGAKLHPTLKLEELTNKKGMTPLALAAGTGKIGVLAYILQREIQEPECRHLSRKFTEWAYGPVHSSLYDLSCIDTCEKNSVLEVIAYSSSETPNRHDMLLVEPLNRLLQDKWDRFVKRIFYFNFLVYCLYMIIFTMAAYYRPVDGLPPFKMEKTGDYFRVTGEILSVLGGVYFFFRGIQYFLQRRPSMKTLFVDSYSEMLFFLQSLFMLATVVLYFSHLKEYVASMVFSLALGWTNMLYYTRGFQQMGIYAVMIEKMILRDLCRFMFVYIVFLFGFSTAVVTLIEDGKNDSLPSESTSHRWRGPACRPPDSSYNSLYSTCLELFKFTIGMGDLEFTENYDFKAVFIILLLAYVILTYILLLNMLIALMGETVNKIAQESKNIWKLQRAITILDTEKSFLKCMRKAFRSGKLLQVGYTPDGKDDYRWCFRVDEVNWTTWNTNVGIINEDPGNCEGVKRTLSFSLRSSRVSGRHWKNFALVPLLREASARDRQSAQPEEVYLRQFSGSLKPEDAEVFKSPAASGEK
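Fluo-8 calcium influx in TRPV1-expressing cells, kinetic read (ex 480/em 520 nm). Compound added and read 3 min for agonist activity, followed by capsaicin at EC20 final and 2 min further read for enhancement.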
Sfp inh: qHTS Assay for Inhibitors of Bacillus subtilis Sfp phosphopantetheinyl transferase (PPTase) | 4'-phosphopantetheinyl transferase ffp (Bacillus subtilis), Q9F4F7 | Biochemical Sfp PPTase activity, qHTS | Potency, µM, for the others: max response, negative = inhibition, usual class: inhibitors | 3.5% of 310,000 active | AID 1490, 2009; active = well fitted inhibition curve with a large enough effect; inconclusive = small, poorly fitted or top-dose-only effect, or another doubt; inactive = no such curve, though single readings can be large or run the other way;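 note: the enzyme is Sfp with the accession as filed and its product quenches rhodamine fluorescence; potency is the fitted concentration of half-maximal effect; 0% = enzyme reaction without inhibitor and -100% = no enzyme wells; top concentration of the series not given in the record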
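With Hepes-Na pH 7.6 buffer containing 10 mM MgCl2, Sfp (15 nM) modified BHQ-2-YbbR (12.5 uM) using rhodamine-CoA (5 uM). Two reads 30 minutes apart at 525/598 nm yielded each well's rate.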
* = called active by the depositor; ? = inconclusive; · = not tested or not shown; & = joins results of further samples; [ ] = remark or other dose.

SMILES | ClpP mod | Menin MLL FP FL | gsp ag | gsp antagonist | TRPML1 inh | TRPV1 potentiator | Sfp inh
CCn1c(SCC(=O)Nc2ccc(-c3nc4ccc(C)cc4s3)cc2)nnc1-c1ccccc1 | · | 0.6 | · | · | · | 3.3 | -17.4%
O=C(c1ccc(Cl)c(S(=O)(=O)N2CCCCC2)c1)N1CCN(c2ccccc2)CC1 | 0.8% | · | ? | -36.7% | 20.1 | -18.1 | 6.1%
Cc1ccccc1NC(=O)COC(=O)c1ccc(S(C)(=O)=O)c([N+](=O)[O-])c1 | -4.5%&0.3% | -6.6 | ? | -19.9% | -5.2 | 0.6 | 12.1%
COCC(=O)N(C)c1nnc(-c2ccc([N+](=O)[O-])cc2)s1 | 0.7% | 0.8 | 2.4% | 1.6% | 4.7 | 15.3 | 16.3%
COc1ccc(S(=O)(=O)NCCCc2ccccc2)cc1 | 1.2% | · | 8.9% | 1.5% | -9.3 | · | ·
CCOc1ccccc1C(=O)N1CCC(n2nnc3cc(C)ccc32)CC1 | -5.1% | 1.2 | -14.8% | -11.7% | -3.7 | 13.6 | 17.0%
Cc1cc(/C=C2\NC(=S)N(C)C2=O)ccc1N1CCCC1 | · | ? | -7.9% | -11.8% | -10.8 | -1.0 | 0.2%
CC(Oc1cccc(Cl)c1)C(=O)NCc1ccc(S(N)(=O)=O)cc1 (centres undefined) | -1.3% | 0.5 | 10.2% | 5.9% | 6.8 | 0.0 | 1.2%
CCCCn1c(N)c(N(CC(C)C)C(=O)C2CC(=O)N(c3ccc4c(c3)OCCO4)C2)c(=O)[nH]c1=O (centres undefined) | 1.4% | · | -16.5%[15.4 µM] | 8.5% | 13.6 | 9.7 | ·
CC1CC(C)CN(S(=O)(=O)c2ccc3c(c2)oc(=O)n3CC(=O)NCCCOC(C)C)C1 (centres undefined) | 1.4% | · | -18.0% | 4.6% | -8.7 | 24.8 | 8.0%
NS(=O)(=O)c1ccc(CCNC(=O)CN2CCN(c3ccc(F)cc3)CC2)cc1 | 0.5% | 5.6 | -54.1%[inhibitor] | 12.4% | 12.3 | 9.8 | 5.7%
COc1ccc(-c2nc(CS(=O)(=O)CC(=O)NCc3ccc(F)cc3)c(C)o2)cc1 | -22.6% | 0.2 | 26.0% | 8.2% | 17.2 | -14.8 | 14.2%
Cc1ccc(C(=O)NCc2cccnc2)o1 | -0.6% | -8.6 | ? | 0.8% | 2.1 | 6.6 | 14.1%
COc1ccc(Nc2nnc(SCC(=O)NC(=O)Nc3ccc4c(c3)OCCO4)s2)cc1 | 0.8% | -0.1 | ? | 2.2% | 15.7 | 10.9 | -11.5%
Cc1cccc(N(C(=O)c2nsc(Cl)c2Cl)C(C(=O)NC2CCCC2)c2ccc(O)cc2)c1 (centres undefined) | 0.2% | -0.4 | -3.7%[15.4 µM] | 10.5% | -5.9 | -7.9 | 11.3%
COc1ccc(NC(=O)C2CCN(c3nc(-c4ccc(OC)cc4)no3)CC2)cc1 | -0.5% | 2.0 | -36.5%[inhibitor] | 3.0% | -10.8 | -17.3 | 8.5%
COCCNC(=O)c1c(N)n(/N=C/c2ccc(F)cc2)c2nc3ccccc3nc12 | ? | -1.4 | 0.9% | -1.8% | 50.9 | 1.6 | 3.3%
CCCC(C(=O)NC1CCCC1)N(CCCN1CCOCC1)C(=O)c1snc(C(N)=O)c1N (centres undefined) | ? | 3.1 | -41.2%[inhibitor] | 1.9% | -11.6 | -21.3 | 12.5%
COc1ccc2nc(NC(=O)C3CCN(S(=O)(=O)c4cnc[nH]4)CC3)sc2c1 | -1.2% | -0.1 | 3.0% | -4.0% | -6.4 | -0.8 | -1.7%
CCN(C(=O)CCc1nc(-c2ccc(OC)cc2)no1)c1cc(OC)ccc1OC | -1.1% | -4.3 | -15.3% | -17.0% | -3.0 | 14.8 | ?
Cc1c(C(O)CN2CCN(Cc3ccc4c(c3)OCO4)CC2)c2ccccc2n1C (centres undefined) | -23.3% | -1.8 | -24.0% | 5.4% | -7.5 | 9.0 | 1.2%
COc1ccc(C(=O)N2CCCC(CCC(=O)NCc3ccccc3F)C2)c(OC)n1 (centres undefined) | -0.6% | 1.3 | 25.9% | 12.6% | 2.0 | -7.7 | 23.4%
O=C(COc1cccnc1[N+](=O)[O-])NCCc1ccc(Cl)cc1 | -3.7% | -1.3 | -9.5%[15.4 µM] | 10.1% | -5.6 | -3.8 | 12.1%
COc1cc(-c2nc(S(=O)(=O)c3ccc(Cl)cc3)c(N3CCOCC3)o2)cc(OC)c1OC | -2.2% | 2.7 | -66.9%[inhibitor] | 0.5% | 6.4 | -4.5 | 19.2%
CN(C)CCCNCCNC(=O)/C=N\O | -8.7% | -5.5 | -26.4% | 0.0% | 7.9 | 2.7 | 6.2%

Brought forward from above: 2 compounds, then new ones.
SMILES | ClpP mod | Menin MLL FP FL | gsp ag | gsp antagonist | TRPML1 inh | TRPV1 potentiator | Sfp inh
COc1cc(-c2nc(S(=O)(=O)c3ccc(Cl)cc3)c(N3CCOCC3)o2)cc(OC)c1OC | -2.2% | 2.7 | -66.9%[inhibitor] | 0.5% | 6.4 | -4.5 | 19.2%
CN(C)CCCNCCNC(=O)/C=N\O | -8.7% | -5.5 | -26.4% | 0.0% | 7.9 | 2.7 | 6.2%
COc1ccccc1N1C(=O)CC(Sc2ncccc2C(=O)O)C1=O (centres undefined) | -2.2% | -0.7 | 7.6% | 3.4% | -9.7 | 1.0 | 18.3%
CC(CC(=O)C1C(C)C=CCC1(C)C)NNC(N)=O (centres undefined) | · | 2.1 | 13.6% | 6.8% | 6.2 | -5.3 | 19.9%
CS(=O)(=O)N1CCCC(C(=O)Nc2ccccc2)C1 (centres undefined) | 0.6% | 0.2 | -24.9%[15.4 µM] | -12.6% | -3.5 | 0.5 | 8.4%
CC(C)OC(=O)CSc1nc(N)c(C#N)c(-c2cccs2)c1C#N | ? | 6.2 | ? | -10.6% | -10.6 | 9.7 | -24.4%
CCCCCC(=O)N1C[C@H](O)[C@@H](n2cc(-c3ccc(F)cc3)nn2)C[C@@H]1c1ccc(Cl)cc1 | 0.8% | · | -60.8%[inhibitor] | · | 9.6 | · | ·
Cc1ccsc1C(=O)OCC(=O)NCc1ccc(Cl)cc1 | -3.3% | · | -33.4%[inhibitor] | 8.8% | 0.1 | 25.2 | ·
COC(=O)[C@]1(Cc2ccccc2)N[C@H](CN(C)C(=O)NC(C)C)[C@@H]2C(=O)N(C)C(=O)[C@@H]21 | 0.3% | · | · | 9.1% | 20.9 | · | ·
O=C(NNS(=O)(=O)c1cccc(Cl)c1Cl)c1cccc(S(=O)(=O)N2CCOCC2)c1 | -1.3% | 2.5 | 3.8% | -2.0% | 30.2 | 12.3 | -12.0%
O=C(c1ccc(Cl)c(Cl)c1)N1CCC(=O)N(C(COCc2ccccc2)Cc2ccccc2)CC1 (centres undefined) | 1.0% | 2.6 | · | ? | 0.0 | -3.6 | -3.0%
CCC(C)(C)NC(=O)C(c1ccc(OC)cc1)N(Cc1ccco1)C(=O)CCC(=O)Nc1cc(C)on1 (centres undefined) | -1.7% | 3.0 | 1.6% | 2.6% | 25.7 | 2.2 | 13.2%
CCCCN(CCCC)S(=O)(=O)c1ccc(N2CCCC2=O)c([N+](=O)[O-])c1 | -1.0% | · | -25.2% | 5.7% | -20.3 | · | ·
O=C(CSc1nnnn1-c1ccccc1)Nc1ccc(N2CCOCC2)cc1 | · | 0.9 | 4.9%[15.4 µM] | · | -6.2 | ? | -0.3%
CCC/C=C/c1ccc(CN2C(CC(C)C)C(=O)N(Cc3cn(CC4CCCCC4)nn3)CCS2(=O)=O)cc1 (centres undefined) | -2.5% | · | ? | · | -8.7 | · | ·
CCCC(=O)Nc1nc(-c2ccc3c(c2)OCCO3)cs1 | 0.4% | -2.1 | -11.6% | -13.6% | -9.6 | -7.0 | 8.4%
CC1CCC2(CC1)NC(=O)N(CC(=O)Nc1ccc(C(N)=O)cc1)C2=O (centres undefined) | -3.2% | · | -28.9% | 7.4% | -0.9 | · | ·
CCn1ncc(C2=NOC(C(=O)Nc3c(C)n(C)n(-c4ccccc4)c3=O)C2)c1C (centres undefined) | -2.3% | 2.8 | 1.2% | -0.6% | 3.9 | · | 14.7%
CCOc1ccc(CCNC(=O)c2nnn(CC(=O)Nc3ccc(OC)c(OC)c3)c2N)cc1OCC | 1.4% | 1.9 | 8.6% | -4.6% | 11.5 | -10.6 | 0.5%
NNC(=O)c1cc(NS(=O)(=O)c2cccs2)cc(NS(=O)(=O)c2cccs2)c1 | -0.6% | · | -20.3% | 3.5% | 8.9 | · | ·
CC1=C(c2ccccc2)C(=S)NC(C)(C)C1 | · | -0.6 | -0.1%[15.4 µM] | 11.8% | -13.7 | -3.1 | 5.4%
CCc1nc2ccccc2c(C(=O)OC2CCCCC2=O)c1C (centres undefined) | · | 0.2 | 6.9%[15.4 µM] | -9.3% | 16.2 | -13.6 | 1.6%
Cc1ccc2nc(C(Cl)(Cl)Cl)nc(N/N=C/c3ccncc3)c2c1 | · | 7.5 | 0.3%[15.4 µM] | 4.3% | 34.7 | 4.1 | -7.7%
CCOC(=O)c1c(C)[nH]c(NC(=O)N2CCOCC2)c1C | -2.3% | 0.0 | -11.6% | 6.4% | -10.2 | 10.3 | 20.2%
COc1ccc(/C=C2\SC(N)=NC2=O)cc1Br | 0.8% | ? | -19.6%[15.4 µM] | -1.2% | -0.3 | -1.2 | -26.5%
Cc1cc(C)nc(N2CCCC(C(=O)NC3CCCC3)C2)n1 (centres undefined) | 22.4µM* | 4.4 | -14.6% | 7.8% | -6.9 | -4.0 | 15.4%
